Sa growth inh: inhibitors of Staphylococcus aureus growth at 42 °C; S. aureus RN4220 growth, OD600, 20 h; hits give low values; relative growth, % (test concentration not listed); actives 0.53% (n = 170,000);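 active = growth at 42 °C up to 50% and 20 or more points under that at 30 °C, or under 10% at both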;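 note: 300 nL library stock went into each well; scaled to the means of positive and negative controls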
GIV-Gai inh: inhibitors of GIV GBA-motif binding to rat Galpha-i3; P08753; AID 1224905; Galpha-i3/FITC-GIV peptide fluorescence polarization, 90 min; hits give low values; scaled: aluminum fluoride 0%, vehicle 100%; percent of control (FP), % (no concentration beside the values); actives 0.42% (n = 210,000);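 active = replicate mean at 85% of control or lower, very high polarization wells dropped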;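 note: wells of about 15 µL received 100 nL stock; the first replicate is given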
Target sequence (P08753 whole entry, looked up): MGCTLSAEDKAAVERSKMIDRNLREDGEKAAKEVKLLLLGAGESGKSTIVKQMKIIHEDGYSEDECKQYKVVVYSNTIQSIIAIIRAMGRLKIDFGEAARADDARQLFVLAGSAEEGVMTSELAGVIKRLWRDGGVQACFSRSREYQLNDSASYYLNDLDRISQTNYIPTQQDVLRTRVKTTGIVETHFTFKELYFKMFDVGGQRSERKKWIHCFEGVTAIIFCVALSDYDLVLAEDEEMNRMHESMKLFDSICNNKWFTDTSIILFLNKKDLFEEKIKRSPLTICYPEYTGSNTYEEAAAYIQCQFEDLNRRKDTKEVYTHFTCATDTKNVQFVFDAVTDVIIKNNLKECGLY
HCMV NEC inh: disrupts HCMV UL50-UL53 complex binding; actives 0.15% (n = 190,000); AID 1918969; inhibition, % (test concentration not listed); HTRF UL50-UL53 interaction, normalized percent inhibition;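 active = both replicates at 50% or more, plus weaker picks with an unusually low signal ratio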;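 note: stock transfer was 100 nL into about 20 µL; 0% = negative control wells and 100% = wells with untagged competitor protein; inactives centre near -12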
Sa growth inh second temp: recorded beside Sa growth inh, whose call it bears; relative growth, %; measured here: growth at 30 °C;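 optical density after 20 h as mean of two plates; 100% = untreated growth and lower means inhibition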
Numbers without * were called inactive; . = no result given; & = joins results of further samples. Not a hit list. Share with any hit: about 0.79%.

Each structure is followed by: GIV-Gai inh, Sa growth inh, HCMV NEC inh, Sa growth inh second temp
O=C1C=CC(=O)N1CCNc1ncc(C(F)(F)F)cc1Cl
→ 108, ., 9, .
O=C1CCc2cc(S(=O)(=O)NCc3ccc(F)cc3)cc3c2N1CC3
→ 108, 102, ., 92
CC(=O)c1ccc(Nc2nc3c(S(=O)(=O)c4ccccc4)nnn3c3ccc(Cl)cc23)cc1
→ 103, 96, -20, 88
CC(C)N(CC(=O)Nc1ccc2c(c1)OCCO2)c1ccccc1
→ ., 101, 18, 98
Cc1nc2c(C(=O)NCc3ccccc3Cl)cnn2c(C)c1Cc1ccccc1
→ 106, 115, ., 92
COc1ccc(NC(=O)CC2SC(=Nc3ccccc3)N(CCO)C2=O)cc1 (stereo unspecified)
→ 103, 106, -20, 88
COc1cc(/C=N/S(=O)(=O)CCc2ccccc2)cc(OC)c1O
→ 101, 89, -34, 83
CC(C)(C)OC(=O)N1CCC(c2c(C(=O)N3CCN(c4ccc(Cl)cc4)CC3)cnn2-c2ccc(F)cc2F)CC1
→ 107, 89, ., 91
O=C(NCCn1c(C(F)(F)F)nc2cccnc21)Nc1ccccc1Cl
→ 121, ., -18, .
Cc1nn(C(=O)CCC(=O)N2CC(C)CC(C)C2)c2ccccc12 (stereo unspecified)
→ 101, 86, -19, 87
COCCCNc1nc2c(c(=O)n(Cc3ccc(F)cc3)c(=O)n2C)n1C
→ 111, 102, 3, 105
CCCCNC(=O)C1CCN(c2nc(OC)nc(OC)n2)CC1
→ 105, 117, -15, 98
O=C(NC1CC1)c1nn(-c2ccccc2Cl)nc1CO
→ 111, ., -26, .
CCN1C(=O)c2ccccc2S(=O)(=O)c2ccc(C(=O)NCc3ccccc3Cl)cc21
→ 104, 106, 14, 92
Cc1n[nH]c(=S)n1/N=C/c1c[nH]c2ccccc12
→ 98, 104, -1, 101
COC(=O)COc1ccc2ccc(=O)oc2c1
→ ., 100, -15, 97
CNC(C)CN1c2ccccc2Sc2ccccc21 (stereo unspecified)
→ 102, 104, 0, 92
Cc1c(Cl)cccc1NC(=O)CN1CCN(Cc2ccc(F)cc2Cl)S1(=O)=O
→ 104, ., -12, .
CCc1nc2sc3c(NCCN(C)C)ncnc3c2c2c1CCCC2
→ 115, 90, -14, 77
COC(=O)COc1ccc(/C=C2\C(=O)NC(=O)N(c3ccc(Cl)cc3)C2=O)cc1OC
→ 105, ., -22, .
CC1(C)CC(=O)C2=C(C1)OC1=C(C(=O)CC(C)(C)C1)C2c1ccc(C#N)cc1
→ 103, ., -10, .
O=C(CSc1cccc[n+]1[O-])N1CCCCC1
→ ., 99, -10, 88
CCOC(=O)c1ccc(NC(=O)CCN2C(=O)S/C(=C/c3ccc(OC)cc3)C2=O)cc1
→ 106, ., -19, .
Cc1c(Cl)cccc1NC(=O)C(=O)NCCc1csc2nc(-c3ccccc3F)nn12
→ 111, 101, ., 72
O=C(O)CCn1cnc2onc(-c3cc(F)cc(F)c3)c2c1=O
→ 99, 93, -36, 85
CCOC(=O)CSc1nc2sc3c(c2c(=O)n1Cc1ccccc1)CC(C)(CC)OC3 (stereo unspecified)
→ 103, ., -5, .
COc1ccc(OCc2nc3ccccc3[nH]2)cc1
→ 101, 91, ., 86
CC(C)CNC(=O)c1ccc2c(=O)n(CC(C)C)c3nn(CC(N)=O)c(=O)n3c2c1
→ 105, ., -24, .
CCOc1ccc(NC(=O)c2cc3cc(C)ccc3n2C)cc1
→ 100, 102, 16, 85
CCOC(=O)c1nn(-c2ccccc2)c(C#N)c1N
→ 106, 106, -16, 92
O=C(NCCCc1nc2ccccc2n1Cc1cccc(Cl)c1)C1CCCCC1
→ 109, 99, -4, 66
CCOc1cc2[nH]c(=S)n(CCCCC(=O)N3CCCCCC3)c(=O)c2cc1OCC
→ 103, 109, ., 84
C=CCc1c(NCCO)nc(C)[nH]c1=O
→ 100, 98, -7, 85
CCN(CC)c1cnn(-c2ccc(C(F)(F)F)cc2)c(=O)c1Cl
→ 109, 96, -29, 92
Nc1nonc1C(=O)N1CCCN(C(=O)Nc2ccccc2)CC1
→ 103, ., -28, .
CC(C)C(c1nnnn1CCc1ccccc1)N1CCCC1 (stereo unspecified)
→ 106, 99, -1, 82
Fc1ccccc1-c1nc2ncccc2o1
→ 100, ., -29, .
Cc1cc(C)c2c(CC(=O)Nc3c(C(=O)c4ccc(F)cc4)oc4ccccc34)coc2c1
→ 100, 116, -14, 86
O=C1CC(C(=O)Nc2ccc3c(c2)OCCO3)n2c(nc3ccccc32)N1 (stereo unspecified)
→ 102, 96, -1, 80
N#CCC(=O)N1CCN(C(c2ccccc2)c2ccccc2)CC1
→ ., 100, -11, 82
Cc1ccccc1Nc1nc(N)nc(Cn2nc(C(=O)O)c3ccccc3c2=O)n1
→ ., 94, 3, 93
COc1cccc(Cn2c(CNS(=O)(=O)c3ccc(C(C)(C)C)cc3)nc3cccnc32)c1
→ 126, 105, ., 105
O=C(OC1CCS(=O)(=O)C1)c1ccc(Br)o1 (stereo unspecified)
→ ., 90, -14, 87
CC(C)Cc1ccc(S(=O)(=O)NC2CCCCC2C)cc1 (stereo unspecified)
→ 109, 108, ., 79
CC(C)Cn1c(=O)c2sccc2n2c(SCC(=O)N3CCCC(C)C3)nnc12 (stereo unspecified)
→ 107, ., -14, .
S=c1n(CN2CCCC2)nc2c(Cl)cc(Cl)cn12
→ ., 70, -80, 89
O=C(Nc1ccccc1)c1ncn(-c2ccccc2)n1
→ 104, 97, -14, 92
COC(=O)c1n[nH]c(=O)c2ccccc12
→ ., 75, -28, 81
Cn1c2ccccc2c2cnn(CC(=O)N3CCN(c4cccc(C(F)(F)F)c4)CC3)c(=O)c21
→ 102, 105, 0, 94
COc1cccc(-c2cc(C(F)(F)F)n3ncc(C(=O)N(C)CCc4ccccn4)c3n2)c1
→ 100&103, 89, -33, 83
N#CC(c1ccccc1)N1CCSCC1 (stereo unspecified)
→ 105, 129, -5, 76
c1ccc(OCc2nn3cnnc3s2)cc1
→ 113, 97, -8, 93
Cc1nn(-c2ccccc2)c2c1C=Nc1cc(Cl)ccc1O2
→ ., 100, 3, 96
Cc1nc2c(c(C)nn2C)c(C)c1CCC(=O)NCCCc1ccccc1
→ 103, 94, ., 84
CSc1ccccc1-c1nnc(NC(=O)Cc2ccccc2)o1
→ 100, 87, -27, 83
Cc1cc(C)cc(-n2c(C)cc(/C=N/NC(=O)CSc3ncccn3)c2C)c1
→ 105, 118, 9, 116
COc1ccc(-c2noc(-c3ccc(NC(C)c4ccccc4)c([N+](=O)[O-])c3)n2)cc1OC (stereo unspecified)
→ 100, 103, -31, 86
COc1ccc(OCc2nc(-c3ccc4c(c3)[nH]c(=O)c(=O)n4C)no2)cc1
→ 100, ., 8, .
Cc1ccc2c(=O)c(C(=O)c3ccccc3)cn(CC(=O)Nc3ccccc3C)c2n1
→ 104, 90, ., 87
C=CCNc1oc(-c2ccc(F)cc2)nc1S(=O)(=O)c1ccccc1
→ 103, ., -20, .

Sorted by the number under Sa growth inh second temp (low to high): three of the compounds above.
Molecule	GIV-Gai inh	Sa growth inh	Sa growth inh second temp
COc1cccc(-c2cc(C(F)(F)F)n3ncc(C(=O)N(C)CCc4ccccn4)c3n2)c1	100&103	89	83
COc1ccc(-c2noc(-c3ccc(NC(C)c4ccccc4)c([N+](=O)[O-])c3)n2)cc1OC (stereo unspecified)	100	103	86
Cn1c2ccccc2c2cnn(CC(=O)N3CCN(c4cccc(C(F)(F)F)c4)CC3)c(=O)c21	102	105	94

(further entries)
Each structure is followed by: GIV-Gai inh, Sa growth inh, HCMV NEC inh, Sa growth inh second temp
COc1cc(NC(=O)CCn2cnc3ccccc3c2=O)cc(OC)c1
→ 97, 104, ., 93
Cc1ccc(C)c(N2CCN(C(=O)C3CCN(C(=O)c4cc5sccc5n4C)CC3)CC2)c1
→ 101, 117, -26, 83
O=C(c1cc(-c2ccc(Cl)cc2)on1)N(Cc1ccc(F)cc1)Cc1ccco1
→ 103, 98, -7, 90
C=CCN(CC(=O)NC1CC1)S(=O)(=O)c1cccc(C(F)(F)F)c1
→ ., 89, -34, 84
c1ccc(C(CNc2ncccn2)c2ccccc2)cc1
→ 109, 104, -8, 115
COc1cc(-n2c(=O)c3ccccc3n(CC(=O)NCc3ccco3)c2=O)cc(OC)c1OC
→ 110, 91, 3, 102
O=C(CCn1c(=O)c2cccn2c2ccc(F)cc21)NCCc1ccccc1
→ 100, 108, -3, 69
CC(C)c1ccccc1NC(=O)CN1c2ccccc2CC1C (stereo unspecified)
→ ., 79, -32, 89
Cc1cccc2cc(CN(C(=O)c3cccc(Cl)c3)c3ccccc3)c(=O)[nH]c12
→ 108, 120, -1, 92
CCCCN(C)C(=O)Cc1ccc(-n2c(=S)[nH]c3ccccc3c2=O)cc1
→ 98, 91, ., 71
C=CCSc1ccc(OCC(F)(F)F)c(C#N)c1OCC(F)(F)F
→ 99, 75, -48, 77
CCN(CC)S(=O)(=O)c1c(C)[nH]c(=O)[nH]c1=O
→ 104, ., -18, .
O=C(COC(=O)c1cc(Cl)nc(Cl)c1)Nc1cccc2ccccc12
→ ., 111, -21, 85
N#Cc1ccc(S(=O)(=O)N2CCC(N3CCCCC3)CC2)cc1
→ 100, 115, -5, 91
CCN(CC)S(=O)(=O)c1ccc2c(c1)nnn2C1CCN(C(=O)NC2CCCCC2)CC1
→ 105, ., 1, .
O=C(NC1(C(F)(F)F)NC(=O)N(Cc2ccccc2)C1=O)c1ccco1 (stereo unspecified)
→ 106, 94, -18, 87
CC(=O)Nc1c(Br)c(C2CC2)nn1-c1ccccc1
→ 101, 90, -33, 87
O=C(CN1C(=O)CSC1=O)NC1CCCCC1
→ 102, 101, -10, 74
COC(=O)Cn1c(=N)n(Cc2ccccc2)c2ccccc21
→ 101, 90, 8, 83
O=C(CSC(=S)N1CCCC1)c1ccccc1
→ 107, 106, 3, 108
CC(C)(C)OC(=O)CN1C(=O)S/C(=C/c2cccs2)C1=O
→ 109, 106, ., 82
Fc1cccc(Cl)c1CSc1nnc(-c2c[nH]c3ccccc23)o1
→ ., 117, 16, 100
CCCN1CCN(CCCNC(=O)CCC(=O)N2Cc3cccc(OC)c3Oc3ncccc32)CC1
→ 110, ., -10, .
CN1CCN2c3ncccc3Cc3ccccc3C2C1 (stereo unspecified)
→ ., 89, -6&-76, 87
CCOc1ccc(CCNC(=O)CCc2cn(Cc3ccc(C)cc3)c3ccccc23)cc1
→ 107, 112, ., 92
NC(=O)C1CCN(c2nc3c(S(=O)(=O)c4ccc(Br)cc4)nnn3c3ccccc23)CC1
→ 98, 86, 10, 86
Cc1cc(C)n2c(Nc3c(C)cccc3C)c(-c3ccc(C)o3)nc2n1
→ 108, 88, -9, 67
CC1=CC(=O)N(c2ccc(C3CCCCC3)cc2)C1=O
→ 111, 104, 7, 88

Of the compounds above, these have an aryl methoxy group.
Each structure is followed by: GIV-Gai inh, Sa growth inh, HCMV NEC inh, Sa growth inh second temp
COc1ccc(NC(=O)CC2SC(=Nc3ccccc3)N(CCO)C2=O)cc1 (stereo unspecified)
→ 103, 106, -20, 88
COc1cc(/C=N/S(=O)(=O)CCc2ccccc2)cc(OC)c1O
→ 101, 89, -34, 83
CCCCNC(=O)C1CCN(c2nc(OC)nc(OC)n2)CC1
→ 105, 117, -15, 98
COC(=O)COc1ccc(/C=C2\C(=O)NC(=O)N(c3ccc(Cl)cc3)C2=O)cc1OC
→ 105, ., -22, .
CCOC(=O)c1ccc(NC(=O)CCN2C(=O)S/C(=C/c3ccc(OC)cc3)C2=O)cc1
→ 106, ., -19, .
COc1ccc(OCc2nc3ccccc3[nH]2)cc1
→ 101, 91, ., 86
COc1cccc(Cn2c(CNS(=O)(=O)c3ccc(C(C)(C)C)cc3)nc3cccnc32)c1
→ 126, 105, ., 105
COc1cccc(-c2cc(C(F)(F)F)n3ncc(C(=O)N(C)CCc4ccccn4)c3n2)c1
→ 100&103, 89, -33, 83
COc1ccc(-c2noc(-c3ccc(NC(C)c4ccccc4)c([N+](=O)[O-])c3)n2)cc1OC (stereo unspecified)
→ 100, 103, -31, 86
COc1ccc(OCc2nc(-c3ccc4c(c3)[nH]c(=O)c(=O)n4C)no2)cc1
→ 100, ., 8, .
COc1cc(NC(=O)CCn2cnc3ccccc3c2=O)cc(OC)c1
→ 97, 104, ., 93
COc1cc(-n2c(=O)c3ccccc3n(CC(=O)NCc3ccco3)c2=O)cc(OC)c1OC
→ 110, 91, 3, 102
CCCN1CCN(CCCNC(=O)CCC(=O)N2Cc3cccc(OC)c3Oc3ncccc32)CC1
→ 110, ., -10, .

Screening results as filed in PubChem.
